hNpr1 antagonist: Natriuretic polypeptide receptor (hNpr1) antagonism - Primary qHTS; Atrial natriuretic peptide receptor 1 (Homo sapiens), P16066; HEK293 hNpr1 GloSensor cGMP, ANP-stimulated luminescence; Potency, µM (top dose mostly 46.3 µM), without a hit: at the highest dose activity change, negative = inhibition, usual class: inhibitors; 76,000 tested, 1.6% active; active = well fitted inhibition curve with a large enough effect; inconclusive = small, poorly fitted or top-dose-only effect; inactive = no such curve, though single readings can be large or run the other way;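 also: nearly all actives have a fitted effect of over 60% in size; nearly all hits also lower the signal before the agonist is added; a reference antagonist and vehicle were the controls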
Target sequence (P16066 whole entry, looked up): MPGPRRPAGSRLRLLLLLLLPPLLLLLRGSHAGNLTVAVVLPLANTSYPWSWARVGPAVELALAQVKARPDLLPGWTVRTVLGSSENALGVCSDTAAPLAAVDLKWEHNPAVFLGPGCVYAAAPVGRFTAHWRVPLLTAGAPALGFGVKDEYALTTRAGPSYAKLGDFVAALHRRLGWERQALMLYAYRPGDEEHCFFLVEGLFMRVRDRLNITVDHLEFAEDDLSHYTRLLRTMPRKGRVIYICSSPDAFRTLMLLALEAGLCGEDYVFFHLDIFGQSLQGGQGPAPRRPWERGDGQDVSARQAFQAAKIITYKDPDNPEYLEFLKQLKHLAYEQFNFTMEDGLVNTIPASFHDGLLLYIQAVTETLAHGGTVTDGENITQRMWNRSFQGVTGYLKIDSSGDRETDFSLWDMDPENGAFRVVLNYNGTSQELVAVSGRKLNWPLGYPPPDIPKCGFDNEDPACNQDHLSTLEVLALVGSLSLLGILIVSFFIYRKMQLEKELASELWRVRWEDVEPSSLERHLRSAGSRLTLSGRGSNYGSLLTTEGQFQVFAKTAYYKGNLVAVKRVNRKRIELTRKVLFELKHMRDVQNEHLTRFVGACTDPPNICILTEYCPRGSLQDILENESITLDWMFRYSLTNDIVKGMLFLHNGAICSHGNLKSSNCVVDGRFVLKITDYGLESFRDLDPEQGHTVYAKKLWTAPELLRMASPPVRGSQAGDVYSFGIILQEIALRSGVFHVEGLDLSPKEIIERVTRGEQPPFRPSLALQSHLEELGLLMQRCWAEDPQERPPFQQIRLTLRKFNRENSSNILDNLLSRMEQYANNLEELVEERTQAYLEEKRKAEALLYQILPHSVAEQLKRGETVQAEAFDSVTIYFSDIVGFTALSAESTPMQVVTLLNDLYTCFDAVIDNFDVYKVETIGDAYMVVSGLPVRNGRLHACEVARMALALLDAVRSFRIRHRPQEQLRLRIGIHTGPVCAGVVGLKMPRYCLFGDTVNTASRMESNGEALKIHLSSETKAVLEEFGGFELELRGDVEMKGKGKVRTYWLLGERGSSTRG
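HEK293 cells stably expressing human Npr1 and cGMP GloSensor pGS-40F, loaded 2 h with 2% GloSensor reagent, given compound 30 min at room temperature. Luminescence read before and 20 min after 0.1 nM hNppA.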
* hit, by the source's call; ? = inconclusive; [ ] = another dose, or the depositor's remark. % is scaled to controls: 0 for no effect and ±100 for the full control effect; potency is read from the fitted curve at half-maximal effect. This is a subset; rates above refer to the full screens.

hNpr1 antagonist | compound
-12% | CCCn1c(C)cnc1CC1CCCN(S(=O)(=O)c2cn(C)cn2)C1 (stereo unspecified)
-2% | Cc1cccc(C(=O)NCCc2noc(C3CC3)n2)c1
-2%[70.6 µM] | COc1cc(F)ccc1-c1cc(C(=O)NCc2cccnc2)c2c(c1)ncn2C
1% | CN(C)C(=O)[C@]12CCCC[C@@H]1N(CCc1ccccc1)C(=O)CC2
-15% | CC(C)c1ccc(CN2CCCC3(CCN(C(=O)c4ccnn4C)C3)C2)cc1 (stereo unspecified)
-3%[70.6 µM] | COc1ccc(CNC[C@H]2COCc3nc4cc(C(F)(F)F)ccc4n32)cn1
3% | Cc1cnc(-c2ccncc2)n1CCNC(=O)NCc1ccc(F)cc1
-5% | COc1cc(-c2onc(C)c2C(=O)NCCCCc2ccccc2)cc(OC)c1OC
? | CCn1ncc(NC(=O)Cn2ncc3cc(-c4ccccc4F)ccc32)n1
-1% | CN(C)C(=O)C1CN(C(=O)Nc2ccccc2F)CC12CCOCC2 (stereo unspecified)
? | CC(=O)N[C@H]1CO[C@H]2[C@@H]1OC[C@@H]2Nc1nccc(-c2cccc(F)c2)n1
8% | CC(C)N1C[C@H](O)C[C@H]1c1nnc2n1CCN(C(=O)c1cccn1C)C2
-7% | CC(C)c1noc(C2CCCN(Cc3cn(C(C)C)c4ccccc34)CCC(=O)NCC2)n1 (stereo unspecified)
0% | COCCCn1c(C)cnc1C1CCN(C(=O)NCc2ccc(C)cc2)C1 (stereo unspecified)
6% | CNC(=O)c1noc([C@@H]2CC(F)(F)CN2C(=O)CCC2CCCC2)n1
? | O=C(c1n[nH]c2c1CCCCCC2)N1CCc2c(nc3cc(-c4ccccc4)[nH]n3c2=O)C1
2% | c1cc2c(cc1CN1CCCC1)CNCCO2
-11% | CC(C)c1cccc(NC(=O)Cn2nc3n(c2=O)CCCCC3)c1
1% | CCCNC(=O)N1CCC(c2noc(COCCOC)n2)CC1
-6%[70.6 µM] | Cc1ccc(S(=O)(=O)N(C)Cc2ccc(F)cc2)cc1
0% | COc1ccc(-c2noc(-c3nc(-c4cccnc4)no3)n2)cc1OC
3% | CC(C)OCCCNC(=O)C1CC(=O)N(c2n[nH]c3cccc(F)c23)C1 (stereo unspecified)
4% | CCNC(=O)[C@@H]1C[C@H](NC(=O)c2oc(C)nc2C)CN1Cc1nc(C)no1
-19% | CC(=O)Nc1cccc(C(=O)NCCn2ccn3nc(-c4ccc(C)cc4C)cc3c2=O)c1
4% | COc1ccc(C(=O)N2CCC(Oc3ccccc3)C2)cc1 (stereo unspecified)
-20%[70.6 µM] | COc1ccc(CN2C(=O)CO[C@H]3CN(Cc4ccccc4Cl)C[C@H]32)cc1
-3%[70.6 µM] | N#Cc1cccc(CN2CCOC[C@H]2c2ncc(-c3ccccc3)[nH]2)c1
-11%[70.6 µM] | O=C1NC2(CCN(C(=O)c3cccnc3)CC2)Oc2ccccc21
? | COc1ccc(NC(=O)[C@@H]2C[C@@H](c3ccc(F)cc3)N(Cc3ccccc3)C2)cn1
-11% | Cn1cc(C(=O)N2CCC3(CC2)CN(c2ncccn2)CC3CO)cn1 (stereo unspecified)
6% | COc1ccccc1CNC(=O)C1CCN(c2cnc3nccnc3c2)CC1
0% | COC1C(=O)N(C2CCN(Cc3scnc3C)CC2)C12CCOCC2 (stereo unspecified)
2% | CNC(=O)[C@@H]1CN(C(=O)c2ccc(C#N)cc2)C[C@H]1COC
-4% | Cc1cccc(CN2C[C@]34C=C[C@H](O3)C(C(=O)N3CCc5ncccc5C3)C4C2=O)c1 (stereo partly specified)
-2% | COc1ccc(N2CCN(CCCNC(=O)C3(CCO)CC34CCOCC4)CC2)cc1 (stereo unspecified)
0% | O=C(CC[C@@H]1CNC(=O)[C@@H]2C[C@H](NCc3cccc(Cl)c3)CN12)NCc1ccc(F)cc1
-12% | Cc1ccc(C2=NC3(CCN(C(=O)c4ccsc4)CC3)ON2)cc1
10µM* | COc1ccc(CNC(=O)c2ccc(-c3ccc(N4CCSCC4)nc3)cc2)cc1OC
-17% | O=C(CCc1cccnc1)N1CCC(c2[nH]ncc2-c2cccc(F)c2)CC1
5% | CCOc1cc(=O)n2c(c1C(=O)NCc1ccc(C)c(C)c1)CCCCC2
7% | CNCCN1C(=O)CC[C@H]2CN(C(=O)CCN3CCCCO3)CC[C@H]21
5% | CC(C(=O)NC1CCN(Cc2ccccc2)CC1)C1CCOCC1 (stereo unspecified)
-1% | Cc1ccc(C(=O)NC2CCN(c3ccc(=O)n(C)n3)CC2)cn1
1% | Cc1nc2c(c(-c3ccc(Cl)cc3)n1)CCN([S+](=O)([O-])c1c(C)noc1C)CC2
0% | COc1ccc(S(N)(=O)=O)cc1C(=O)N1CCC2(CCCN(C)C2=O)C1 (stereo unspecified)
-12%[70.6 µM] | O=C(Cc1cccc(Cl)c1)NCC1COc2ncncc2C(=O)N1CC1CC1 (stereo unspecified)
8% | Cc1cccc(NC(=O)C2CC(=O)N(c3n[nH]c4cc(Br)ccc34)C2)c1C (stereo unspecified)
-19%[70.6 µM] | COc1ccc(CNC(=O)c2nc3nc(-c4ccccc4)c(Cl)cc3n2C)cc1OC
0% | O=C1CCN(S(=O)(=O)c2ccccc2)CCCN(C2CCCCCC2)CCN1
0% | O=C(Cc1ccccc1)N1CCC2(CC1)CN[S+](=O)([O-])c1ccccc1N2
4% | Cc1ncsc1C(=O)N1CCC2(CC1)OC(=O)N(Cc1cccnc1)C2(C)c1ccccc1 (stereo unspecified)
-10% | CCN1c2cc(C(=O)Nc3ccc(C)c(C)c3)ccc2C(=O)N2CCCCC21 (stereo unspecified)
2%[70.6 µM] | COc1ccc(CNC(=O)CC[C@H]2CNC(=O)[C@@H]3[C@@H](CCN3C(C)C)N2C)cc1
-8% | CCn1nc(C)c(-c2cc(C(=O)NCC3Cn4cccc4C(=O)N3CCOC)no2)c1C (stereo unspecified)
4µM* | O=C(c1ccc2c(c1)OCO2)N1CCC(Cc2nc(-c3ccccc3)no2)CC1
-6% | COc1cc(CN2C[C@@H]3C(=O)N(CCc4ccccc4)C(=O)[C@@H]3C2)cc(OC)c1

Other compounds:
hNpr1 antagonist | compound
6% | Cn1ncc(N2CCC(C(=O)NCc3ccc(OC(F)(F)F)cc3)C2)cc1=O (stereo unspecified)
-2% | CCc1noc([C@@H]2CC(F)(F)CN2C(=O)c2cn(C)cn2)n1
0% | COCCn1c(C)cnc1CC1CCCN(Cc2ccc(F)cc2F)C1 (stereo unspecified)
2% | COCC(=O)NC1CCC12CCN(Cc1ccc(F)cc1F)CC2 (stereo unspecified)
4% | O=C1CCN(S(=O)(=O)c2ccccc2)CCCN(Cc2cn[nH]c2-c2ccc(F)cc2)CCN1
? | CNc1nccc(N2CCC(CC(=O)N(C)CCCc3c(C)nn(C)c3C)CC2)n1
-9% | COc1ccccc1CNC(=O)C[C@@H]1CCNC[C@@H]1Cc1cc(CSc2ccccc2)on1
-2% | CNC(=O)[C@@H]1CN(C(=O)c2ccn(C)n2)C[C@H]1COC
-18% | O=C1Nc2ccccc2C2(CCN(C(=O)OCc3ccccc3)C2)O1 (stereo unspecified)
4% | O=C1[C@@H]2C[C@@H](O)CN2C2(CN(Cc3ccc(C(F)(F)F)cc3)C2)C(=O)N1Cc1ccccc1F
2%[70.6 µM] | CS(=O)(=O)N[C@H]1C[C@H]2C(=O)Nc3ccc(-c4ccc5c(c4)OCO5)cc3C(=O)N2C1
-5% | Cc1ccccc1NC(=O)N1CCC(N(CCC(C)C)C2CCOCC2)CC1
-13% | Oc1ccc(-c2nc(C3CC3)nc3c2CCN(Cc2ccc(C(F)(F)F)cc2)CC3)cc1
-8% | COc1cc(-c2onc(C)c2C(=O)NCCc2ccc(F)cc2)cc(OC)c1OC
-19% | CCCCNC(=O)N1CC(C(=O)NCc2ccco2)CC(c2ccc(F)c(C)c2)C1 (stereo unspecified)
-7% | CCc1noc(-c2cn(C3CCN(C(=O)COc4ccc(F)cc4)C3)nn2)n1 (stereo unspecified)

Another view of 14 compounds above.
structure	hNpr1 antagonist
CCCn1c(C)cnc1CC1CCCN(S(=O)(=O)c2cn(C)cn2)C1 (stereo unspecified)	-12%
Cc1cccc(C(=O)NCCc2noc(C3CC3)n2)c1	-2%
COc1cc(F)ccc1-c1cc(C(=O)NCc2cccnc2)c2c(c1)ncn2C	-2%[70.6 µM]
CN(C)C(=O)[C@]12CCCC[C@@H]1N(CCc1ccccc1)C(=O)CC2	1%
CC(C)c1ccc(CN2CCCC3(CCN(C(=O)c4ccnn4C)C3)C2)cc1 (stereo unspecified)	-15%
COc1ccc(CNC[C@H]2COCc3nc4cc(C(F)(F)F)ccc4n32)cn1	-3%[70.6 µM]
Cc1cnc(-c2ccncc2)n1CCNC(=O)NCc1ccc(F)cc1	3%
COc1cc(-c2onc(C)c2C(=O)NCCCCc2ccccc2)cc(OC)c1OC	-5%
CCn1ncc(NC(=O)Cn2ncc3cc(-c4ccccc4F)ccc32)n1	?
CN(C)C(=O)C1CN(C(=O)Nc2ccccc2F)CC12CCOCC2 (stereo unspecified)	-1%
CC(=O)N[C@H]1CO[C@H]2[C@@H]1OC[C@@H]2Nc1nccc(-c2cccc(F)c2)n1	?
CC(C)N1C[C@H](O)C[C@H]1c1nnc2n1CCN(C(=O)c1cccn1C)C2	8%
CC(C)c1noc(C2CCCN(Cc3cn(C(C)C)c4ccccc34)CCC(=O)NCC2)n1 (stereo unspecified)	-7%
COCCCn1c(C)cnc1C1CCN(C(=O)NCc2ccc(C)cc2)C1 (stereo unspecified)	0%

The list continues.
hNpr1 antagonist | compound
-18% | c1cncc(-c2n[nH]c(CC3CCNC3)n2)c1 (stereo unspecified)
1%[70.6 µM] | COc1ccc([C@H]2C[C@@H](O)[C@@H](O)[C@@H]2NC(=O)c2ccc(OC)c(OC)c2)cc1
3% | Cc1ccc(OCc2nc(C3CCCCN3C(=O)CCN3C(=O)NC(C)(C)C3=O)no2)cc1 (stereo unspecified)
-2% | COc1ccc(CC(=O)N2CCC3(CC2)CN(c2ncccn2)CC3CO)cc1 (stereo unspecified)
0% | COCc1nncn1C1CCN(S(=O)(=O)c2ccccc2C(F)(F)F)CC1
-3% | FC(F)(F)c1ccc(CN2CCn3c(nnc3-c3ccccc3)C2)cc1
8% | CCCNC(=O)N1CCC(Cn2c(C)cnc2-c2cccnc2)CC1
-1% | CC1=NS(=O)(=O)N(Cc2ccc(F)cc2F)C=C1C(=O)O
4% | COCC1CN(S(=O)(=O)c2cccc3cccnc23)CC12CCNCC2 (stereo unspecified)
-23%[70.6 µM] | Cc1ccccc1-c1cnc2n[nH]c(-c3ccccc3)c2n1
-15% | COC[C@@H]1CN(C(=O)c2ccccc2)C[C@H]1c1nc(C2CC2)no1
-12% | CN1c2cc(C(=O)NC3CCCC3)ccc2C(=O)N2CCCCC21 (stereo unspecified)
1% | O=C(CC[C@H]1NC(=O)c2ccccc2NC1=O)NCCc1nc(-c2ccccc2)cs1
5% | CCc1cc(CN(C)C(=O)c2cc(COc3ccccc3F)[nH]n2)on1
-6%[70.6 µM] | COc1cccc(NC(=O)N[C@H]2C[C@@H](c3nc(-c4ccccn4)no3)N(C)C2)c1
1% | Cc1cc2c(cc1C(=O)N1C[C@@H](CN(C)CCO)[C@@H](CO)C1)OCCO2
? | COc1ccc(Cl)cc1C(=O)N1CCN(C(=O)c2nnn3c2COC(c2ccccc2)C3)CC1 (stereo unspecified)
3%[70.6 µM] | CCN(CC)CC[C@H]1CN(C(=O)c2ccnc(Cl)c2)CC[C@H]1CC(=O)O
-2% | O=C(c1cc(-c2ccccc2O)n[nH]1)N1CCC2(CCNCC2)CC1
3% | Cc1ccc(NC(=O)Cn2c(-c3ccccc3)nc(C)cc2=O)c(C)c1
3% | O=C(c1ccc(N2CC3CC(C2)[C@H]2CCCC(=O)N2C3)nc1)N1CCc2ccccc21 (stereo partly specified)
-11% | O=C(c1ccccc1F)N1CC(c2nnc(-c3ccncc3)o2)C2(CCOCC2)C1 (stereo unspecified)
1%[70.6 µM] | O=C1N[C@@H]2CCN(S(=O)(=O)c3ccccc3)[C@@H]2C(=O)N1c1ccc(F)cc1
-6% | CS(=O)(=O)N1CCCN(c2cc(C3CC(O)C3)nc(N)n2)CC1 (stereo unspecified)
-1% | CC(C)N1C(=O)C2(CCCC2)C1C(=O)NCCN1CCCCC1 (stereo unspecified)
2% | CC(=O)N(C1CC1)C1CCOC2(CCN(C(=O)c3cn[nH]c3-c3ccccc3)CC2)C1 (stereo unspecified)
-6%[70.6 µM] | O=C1COc2ccc(-c3ccsc3)nc2CN1
1% | O=C(NCCc1ccccc1)C1CCN(C(=O)N2CC3CC(C2)[C@H]2CCCC(=O)N2C3)CC1 (stereo partly specified)
-1%[70.6 µM] | CN1C(=O)CO[C@H]2CN(Cc3ccc(Cl)cc3)C[C@H]21
4% | Cc1ccc(C(=O)N2CCn3c(nn(-c4ccc(F)cc4)c3=O)C2)cc1
-10% | CCC[C@H]1CN(C(=O)c2cc(=O)[nH]c3cc(F)ccc23)C[C@@H]1N
4%[70.6 µM] | COc1cccc(F)c1-c1ncc2c(n1)OCCN(c1cccc(C(F)(F)F)c1)C2=O
2% | O=C(Nc1ccc(-c2nnc3n2CCCC3)cc1)c1ccc(F)c(F)c1
0% | Cc1cccc(CN2CCOCCNC(=O)[C@H]3CCCC[C@H]32)c1
21% | COC(=O)N1CCC(c2nn(-c3ccc(OC)cc3)c(=O)[nH]2)CC1
-20% | Cc1ccc(C(=O)N2CCN(C(=O)c3nnn4c3COC(c3ccccc3)C4)CC2)cc1 (stereo unspecified)
-1% | O=C(c1ccccc1)N1C[C@H]2OC(=O)N(CCc3cccc(Cl)c3)[C@H]2C1
0% | CNC(=O)C1N(C(C)C)C(=O)C12CCCCC2 (stereo unspecified)

High-throughput results deposited in PubChem BioAssay by National Center for Advancing Translational Sciences (NCATS).
